Assay outcomes (PubChem BioAssay)
Polio RdRp inh: inhibitors of poliovirus RNA polymerase binding and polymerization. % elongation, % (compound at 16.7 µg/mL). actives 0.66% (n = 150,000). poliovirus polymerase elongation, fluorescence polarization; hits give low values. P03300; in the data active = % elongation below about 90%; also: some results filed as inactive read as strong as hits
Target sequence (P03300 1749-2209 limits assumed): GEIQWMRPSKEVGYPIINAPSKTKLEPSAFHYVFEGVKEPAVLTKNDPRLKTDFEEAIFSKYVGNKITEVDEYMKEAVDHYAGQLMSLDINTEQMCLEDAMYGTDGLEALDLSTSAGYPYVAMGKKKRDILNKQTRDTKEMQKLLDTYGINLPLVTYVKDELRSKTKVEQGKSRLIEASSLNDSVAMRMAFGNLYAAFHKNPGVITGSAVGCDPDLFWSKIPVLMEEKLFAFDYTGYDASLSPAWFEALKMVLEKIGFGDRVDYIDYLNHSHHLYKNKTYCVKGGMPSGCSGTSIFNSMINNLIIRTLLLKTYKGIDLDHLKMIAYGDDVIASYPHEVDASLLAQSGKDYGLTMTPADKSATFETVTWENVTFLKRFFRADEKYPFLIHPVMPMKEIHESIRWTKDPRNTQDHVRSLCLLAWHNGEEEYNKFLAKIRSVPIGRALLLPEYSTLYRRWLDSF
MenB inh: Mtb MenB enzyme inhibition; MenB enzyme assay, absorbance read-out; some hits fall short of the stated cut; actives 0.43% (n = 100,000); P9WNP5; inhibition, %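 (about 12 µg/mL by stock and volumes)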;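 active = mean of two replicates above 30%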;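 also: 0% = no compound and 100% = wells with inactive enzyme; the first replicate is given; strong numbers were not always called active; inactives centre near -10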
Target sequence (P9WNP5 whole entry, looked up): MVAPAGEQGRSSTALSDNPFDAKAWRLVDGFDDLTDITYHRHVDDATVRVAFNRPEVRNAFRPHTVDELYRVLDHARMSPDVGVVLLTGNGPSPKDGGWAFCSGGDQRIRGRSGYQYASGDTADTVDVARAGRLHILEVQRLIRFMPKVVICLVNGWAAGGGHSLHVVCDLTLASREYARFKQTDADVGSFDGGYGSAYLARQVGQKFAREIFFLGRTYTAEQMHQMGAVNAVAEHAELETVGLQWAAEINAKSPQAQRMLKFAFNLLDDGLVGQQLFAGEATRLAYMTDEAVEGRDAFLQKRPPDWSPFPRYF
Mtb MbtI inh: blocks the Mycobacterium tuberculosis siderophore enzyme MbtI; purified MbtI enzyme, fluorescence intensity read-out; inhibition, %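 (about 17 µg/mL by stock and volumes)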; actives 0.89% (n = 100,000); AID 493033;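 active = above 50% in both replicates, above 80% if mildly self-fluorescent; inactive = the rest, strongly fluorescent compounds included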;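 also: 0% = mean of negative and 100% = mean of positive controls; one replicate is shown; some compounds called inactive have numbers as strong as hits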
Polio RdRp inh intensity: recorded beside Polio RdRp inh, whose call it bears; % elongation; measured here: total intensity read-out; formula for this scale not given here;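 total fluorescence in place of polarization; lower means less elongation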
Active calls of the source: *; . = not tested or not shown; & = joins results of further samples. No enrichment for hits; overall some 1.7% were active at least once.

SMILES	Polio RdRp inh	Polio RdRp inh intensity	MenB inh	Mtb MbtI inh
CSc1ncccc1C(=O)OCC(=O)Nc1ccccc1C(=O)NC1CC1	104	98	-28	-2
COCCn1c(SCC(=O)NCc2ccc3c(c2)OCO3)nnc1-c1c[nH]c2ccccc12	100	104	-13	-5
COC(=O)c1ccc(C2Nc3cccc4cccc(c34)N2)cc1	100	100	-10	0
Cc1ccc(/C=C2\SC(=O)NC2=S)o1	50	163	-32	69
C=CC(=O)Nc1ccc(Br)cc1	102	103	-20	-3
COC(=O)c1ccc(OC)nc1	94	100	7	-12
COc1ccc(OCc2nn3c(C(F)(F)F)nnc3s2)cc1	100	103	1	-16
O=C(O)CC1C=C(Cl)S(=O)(=O)C1 (configuration not stated)	102	107	.	-2
CC1CN=C(NC2CCCCC2C)S1 (configuration not stated)	104	107	-17	1
CCO/C=C1/C(=O)N(c2ccc(OC)cc2)C(=O)c2ccccc21	82*	89*	-2	26
O=C(CCCn1ncn2c(cc3occc32)c1=O)NCCc1ccccc1	106	109	-1	9
C=CCN1C(=O)/C(=C2\SC(=S)N(CC(=O)O)C2=O)c2cc(Br)ccc21	102	105	-60	5
Cc1ccc2nc(-c3ccc(NC(=O)[C@@H]4CCCC[C@@H]4C(=O)O)cc3)sc2c1	103	112	-9	.
N#Cc1cccn1-c1ccccc1F	100	103	-17	-3
c1ccc(-c2nn(-c3ccccc3)c3c2cnc2ccccc23)cc1	103	98	-19	0
COC(=O)C1C(c2ccccc2)C(C(=O)O)C1c1ccccc1 (configuration not stated)	99	102	4	-7
O=C(CSCc1ccccc1Cl)N/N=C/c1ccc(O)cc1O	102	104	-42	4
CCCNC(=O)c1ccccc1NS(=O)(=O)Cc1ccccc1	102	101	4	-274
O=C(O)C1CCCCC1C(=O)N1CCN(S(=O)(=O)c2cccs2)CC1 (configuration not stated)	101	104	-10	-14
COc1cccc(-c2cc(C(=O)N(C)c3ccccc3)no2)c1	102	109	-12	-11
COC(=O)c1ccc(-n2nnnc2SCCCC(=O)c2ccc(F)cc2)cc1	106	100	-18	4
CC1CN(C(=O)C2CCCCC2)C(C)CN1C(=O)C1CCCCC1 (configuration not stated)	101	102	-7	-16
COc1ccc(CCn2c(C)cc(C(=O)Cn3cnc4c(oc5ccccc54)c3=O)c2C)cc1	99	104	-1	1
CCOc1ccc(-n2c(=O)c3sccc3n(CC(=O)NC3CCCC3)c2=O)cc1	102	105	-61	-3
C=CC[n+]1ccc(/C=C/c2ccccc2O)c2ccccc21	105	107	-186	-76

Random excerpt: 5 entries already listed
SMILES	Polio RdRp inh	Polio RdRp inh intensity	MenB inh	Mtb MbtI inh
O=C(CCCn1ncn2c(cc3occc32)c1=O)NCCc1ccccc1	106	109	-1	9
C=CC[n+]1ccc(/C=C/c2ccccc2O)c2ccccc21	105	107	-186	-76
CC1CN=C(NC2CCCCC2C)S1 (configuration not stated)	104	107	-17	1
COc1ccc(OCc2nn3c(C(F)(F)F)nnc3s2)cc1	100	103	1	-16
COCCn1c(SCC(=O)NCc2ccc3c(c2)OCO3)nnc1-c1c[nH]c2ccccc12	100	104	-13	-5

Continued:
SMILES	Polio RdRp inh	Polio RdRp inh intensity	MenB inh	Mtb MbtI inh
COc1ccc(-c2cccc(NC(=O)c3ccccc3)c2)nn1	103	110	8	8
CCc1cc(C(=O)O)c(NC(=O)c2cccc(C)c2)s1	103	107	.	34
CN1CCCN(C(=O)c2ccccc2Br)CC1	104	105	.	-5
Cc1ccc(S(=O)(=O)Cc2ccc(C(=O)N3CCC(C(N)=O)CC3)o2)cc1	98	103	4	-15
CC(C)OC(=O)Cn1cc(C#N)c2ccccc21	106	111	-8	.
CC(C)(C)NC(=O)c1ccccc1C(=O)NC(C)(C)C	102	102	-47	-10
CC(C)N(Cc1nnc(-c2ccccc2)o1)C(=O)COc1ccc(C#N)cc1	115	111	-23	-7
CCCS(=O)(=O)N1CCN(Cc2ccc(OC)c(OCC)c2)CC1	103	101	-14	-6
CC1(C)CC(NC(=O)Cc2ccccc2)CC(C)(C)N1	102	108	.	-2
CCOCCCNc1nc2nc3ccc(C)cn3c(=O)c2cc1C(=O)NC1CCCCC1	100	102	-8	36
Cc1cc(C)c2c(n1)sc1c(=O)n(C(C)(C)C)nnc12	102	102	11	-4
CCc1nc2ccccc2n1Cc1ccccc1	102	105	-11	0
Cc1ccc2oc(-c3ccc(N(C)C)cc3)cc(=O)c2c1	43	240	-52	-179
O=C(NC1(C(F)(F)F)NC(=O)N(c2ccc(F)cc2)C1=O)c1ccco1 (configuration not stated)	101	98	7	-18
CCCCN(Cc1ccco1)C1=NC(Cc2ccccc2)C(=O)N1c1ccc(C)cc1C (configuration not stated)	102	102	-43	-5
CCCNC(=O)NCc1n[nH]c(=O)c2ccccc12	106	98	-16	-1
Cc1oc2cc(OCC(=O)O)ccc2c(=O)c1-c1ccc2c(c1)OCCO2	105	102	-6	10
CC(C)(C)OC(=O)N1CCC[C@H]1C(=O)OCc1cc(=O)n2cc(Br)ccc2n1	100	96	-9	2
COc1ccc(CCNC(=O)COc2cc(=O)n(C)c3ccccc23)cc1OC	106	98	10	10
Cn1c(SCc2cc(=O)[nH]c(=O)[nH]2)nnc1C(F)(F)F	105	103	-11	9
CCCCc1c(-c2ccccc2)nc(N)c(C#N)c1-c1ccc(O)c(OC)c1	105	105	-24	.
N#Cc1ccc(NC(=O)COC(=O)CN2CSCC2=O)cc1	103	100	-2	-2
CC(Sc1nnc(-c2cccs2)n1C1CC1)C(=O)NCC1CCCO1 (configuration not stated)	103	108	-11	4
CN1C(=O)CSC1=Nc1cccc(C(=O)O)c1	100	102	-3	-5
CC1=C2C[C@H]3[C@@H](CC=C4C[C@@H](O)CC[C@@]43C)[C@@H]2CC[C@]12O[C@@H]1C[C@H](C)CN[C@H]1[C@H]2C	101	103	.	-2

Molecules from the list above that have fluorine (5):
SMILES	Polio RdRp inh	Polio RdRp inh intensity	MenB inh	Mtb MbtI inh
COc1ccc(OCc2nn3c(C(F)(F)F)nnc3s2)cc1	100	103	1	-16
N#Cc1cccn1-c1ccccc1F	100	103	-17	-3
COC(=O)c1ccc(-n2nnnc2SCCCC(=O)c2ccc(F)cc2)cc1	106	100	-18	4
O=C(NC1(C(F)(F)F)NC(=O)N(c2ccc(F)cc2)C1=O)c1ccco1 (configuration not stated)	101	98	7	-18
Cn1c(SCc2cc(=O)[nH]c(=O)[nH]2)nnc1C(F)(F)F	105	103	-11	9

Next compounds.
SMILES	Polio RdRp inh	Polio RdRp inh intensity	MenB inh	Mtb MbtI inh
CCOC(=O)c1ccc(NC(=O)c2ccc[n+]([O-])c2)cc1	101	102	.	3
c1ccc(-n2ncc3c(SCCC4OCCO4)ncnc32)cc1	101	100	10	18
Cc1nc2sc3c(c2c(=O)n1N)CCCC3	101	103	9	19
N#Cc1nc(COc2ccc(Cl)cc2)oc1NCCc1ccccc1	102	98	-29	-1
CN(C)c1ccc(C(=C2C=CC(=[N+](C)C)C=C2)c2ccc(N(C)C)cc2)cc1	98	91	6	9
COc1cc(CNC(C)(C)C)ccc1OCC(=O)NC(C)(C)C	105	107	-5	-26
CCN(CC)C(=O)Sc1cccc2cccnc12	103	103	-6	98
CC1(C)CC(=NO)CC(C)(C)N1	103	105	14	-4
COc1cc(C(=O)NCCC(=O)NC2CCCCC2)cc(OC)c1OC	99	101	-19	8
CNC(=O)c1cccc(NC(=O)C2=CSCCO2)c1	100	103	-31	-21
CCOC(=O)c1[nH]c2ccc(OC)cc2c1NC(=S)N1CCOCC1	101	106	-5	-6
CC(=O)Nc1ccc(C2N3CCCN23)cc1 (configuration not stated)	102	106	-10	.
CCN=C1NN=C(c2c[nH]c3ccccc23)CS1	103	105	-14	7
CCc1ccccc1N1C(=O)NC(=O)/C(=C\c2ccc(N(CC)CC)o2)C1=O	126	153	-140	1
O=C(O)c1ccccc1C(=O)NC1CCCCNC1=O (configuration not stated)	101	108	13	-9
CC(=O)Nc1ccc(NC(=O)C(NC(=O)C2CCCCC2)C(C)C)cc1 (configuration not stated)	100	104	-72	-10
COc1cc(F)nc(N)n1	102	104	-10	-3
CCOC(=O)C1=C(CN2C(=O)c3ccccc3S2(=O)=O)NC(=O)NC1c1ccc(OC)cc1 (configuration not stated)	103	101	-15	-15
Oc1ccccc1-c1nnc2n1CCCCC2	101	100	3	-58
Cc1sc2ncn(CC(=O)NCc3ccccn3)c(=O)c2c1S(=O)(=O)N1CC(C)CC(C)C1 (configuration not stated)	101	103	-74	-3
CN1CCN(S(=O)(=O)c2ccc(Br)c3ccccc23)CC1	102	100	-9	-22
CSc1ccc(C2C3=C(CCCC3=O)Nc3ccc4ccccc4c32)cc1 (configuration not stated)	101	106	-44	.
CC(=O)NC(C(=O)c1ccccc1)N1CCCCC1 (configuration not stated)	101	101	-4	13
Cc1cccc(S(=O)Cc2ccc(C(=O)NC3CCCC3)o2)c1 (configuration not stated)	102	103	-8	3
CO[C@@H]1[C@@H](OC(N)=O)[C@@H](O)[C@H](Oc2ccc3c(O)c(NC(=O)c4ccc(O)c(CC=C(C)C)c4)c(=O)oc3c2C)OC1(C)C	99	100	2	4

(list continues)
SMILES	Polio RdRp inh	Polio RdRp inh intensity	MenB inh	Mtb MbtI inh
COc1ccc(C2CC(=O)Nc3cc4c(cc32)OCO4)cc1 (configuration not stated)	108	108	-5	.
Cc1ccc(C)n1-c1ccc(Oc2ccc(Br)cc2)cc1	103	105	4	0
O=C(NCCC(=O)N1CCN(c2ccc(F)cc2)CC1)c1ccco1	103	107	2	-2
CC(C)(C)OC(=O)N1CCC(CNS(=O)(=O)c2cc(Cl)sc2Cl)CC1	107	107	-9	-4
Cc1ccn(S(=O)(=O)c2ccccc2)n1	104	99	-31	-7
CCn1c(SCC(=O)c2ccccc2)nc2sc3c(c2c1=O)CCC3	103	100	-19	1
O=C1/C(=C\c2ccco2)SC(=S)N1CCC(=O)N1CCCc2ccccc21	103	106	-49	7
Cc1ccc(Oc2ccc(OCC(=O)NCc3ccco3)cc2)cc1	106	106	.	-16
CN1CCN(NC(=O)c2ccccc2CCc2ccccc2)CC1	103	102	-7	-3
COc1ccc(NC(=O)CSc2nnc(CNc3ccc(C)cc3C)o2)c(OC)c1	102	102	-11	-18
Cc1ccccc1C(=O)Nc1nnc(C2=COCCO2)o1	98	103	-16	11
COC(=O)c1ccc(COc2ccc3c(c2)OCO3)cc1	104	106	-4	-16
CCCCNC(=O)C1CCN(Cc2nc(-c3ccc(Cl)cc3)oc2C)CC1	98	105	-4	2
O=C(N/N=C/c1ccccc1C(F)(F)F)c1ccco1	101	100	14	4
Nc1nnc(SCC(=O)C2CC2)s1	100	99	-5	-5
O=C(COc1ccc(Cl)cc1)OCc1ccc(Br)cc1	99	95	.	-9
CC(=O)Nc1cccc(Oc2ncnc3scc(-c4ccc(C(C)C)cc4)c23)c1	101	102	-44	0
CC(C)(C)OC(=O)NCc1nc(N)n[nH]1	103	101	-1	0
CCOC(=O)c1cc(CSc2n[nH]c(=O)n2-c2ccccc2)nn1C(C)(C)C	108	107	-18	-3
O=c1[nH]c2cc3c(cc2cc1CN(Cc1ccc2c(c1)OCO2)S(=O)(=O)c1ccc(F)cc1)OCO3	100	101	36	-11
O=C(CSc1ncc(C(F)(F)F)cc1Cl)NC(=O)CN1CCCC1=O	102	105	-12	1
COc1ccc(OC)c(NS(=O)(=O)c2ccccc2)c1	102	105	-5	.
CCCc1cc(NCCCN(CC)CC)n2c(nc3ccccc32)c1C#N	103	102	-2	5
Cc1cccc(-c2nnc(SCc3ccc(C#N)cc3)n2CC(N)=O)c1	101	102	-3	-6
N#Cc1ccc(NC(=O)c2ccc(Br)o2)cc1	103	110	-17	.

Remaining list, next part:
SMILES	Polio RdRp inh	Polio RdRp inh intensity	MenB inh	Mtb MbtI inh
Clc1cc(Cl)cc(OCc2nn[nH]n2)c1	102	108	4	-12
CNC(=O)/C=C1\N(C)c2ccccc2C1(C)C	104	117	.	26
CC1CN(c2ncnc3scc(-c4ccccc4)c23)CC(C)O1 (configuration not stated)	106	104	-10	0
O=C(/C=C/c1ccc(Cl)cc1)N1CCN(C(=O)c2ccco2)CC1	102	106	.	0
COC(=O)c1cc(-c2ccc3c(c2)OCO3)nc2onc(C)c12	100	109	-11	-16
CC(C)OCc1ccc(C(=O)O)cc1	102	104	-14	-12
CSC(=S)n1c(=Nc2ccccc2)sc2ccccc21	102	106	.	-10
CC1=CC(=O)NC2C=CC=CC12 (configuration not stated)	101	103	-15	1
Cc1cc(/C=C(/C#N)S(C)(=O)=O)c2c(C)ccc(C(C)C)cc1-2	98	104	-22	-3
Cc1[nH]c(=O)[nH]c(=O)c1S(=O)(=O)N1CCC(C(=O)NC(C)c2ccccc2)CC1 (configuration not stated)	103	107	-8	1
OCc1nc2ccccc2n1Cc1ccccc1Cl	102	101	-16	-3
COc1ccccc1NC(=O)C(C)SC1CCCC1 (configuration not stated)	103	105	-16	-9
O=C1CCC(C(=O)NCCc2ccc(Cl)cc2)=NN1	107	109	5	-5
CCCCC/C=C\C/C=C\CCCCCCCC(=O)O	98&100	103&102	-6	-12
CC(C)CC(=O)n1c(=O)oc2ccccc21	99	100	-12	3
COc1cc(C(=O)NC(C(C)C)C(C)C)cc(OC)c1OC	101	104	6	-13
O=C(O)/C=C/c1ccc(-c2ccccc2)s1	104	111	-13	-54
CCOC(=O)C1CCCN(c2nc3ccccc3nc2C(C#N)C(=O)OC)C1 (configuration not stated)	106	111	-13	-5
CCSc1nc(N)c(C#N)c(-c2ccco2)c1C#N	100	103	-30	53
